Compound activity: PubChem BioAssay, Broad Institute
AF4-AF9 inh: blocks AF4 peptide binding to human AF9. P42568. AlphaScreen, biotin-AF4 peptide binding to FLAG-AF9. inhibition, % at 10 µM. hit rate 0.47% among 350,000. AID 651704;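 active = every replicate reaching a set inhibition limit, whatever the replicate mean, cut at about 25% in these data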;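 also: 0% = plate neutral control median and 100% = total signal loss; the record names both 10 and 1 µM as test concentration; the first replicate is given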
Target sequence (P42568 whole entry, looked up): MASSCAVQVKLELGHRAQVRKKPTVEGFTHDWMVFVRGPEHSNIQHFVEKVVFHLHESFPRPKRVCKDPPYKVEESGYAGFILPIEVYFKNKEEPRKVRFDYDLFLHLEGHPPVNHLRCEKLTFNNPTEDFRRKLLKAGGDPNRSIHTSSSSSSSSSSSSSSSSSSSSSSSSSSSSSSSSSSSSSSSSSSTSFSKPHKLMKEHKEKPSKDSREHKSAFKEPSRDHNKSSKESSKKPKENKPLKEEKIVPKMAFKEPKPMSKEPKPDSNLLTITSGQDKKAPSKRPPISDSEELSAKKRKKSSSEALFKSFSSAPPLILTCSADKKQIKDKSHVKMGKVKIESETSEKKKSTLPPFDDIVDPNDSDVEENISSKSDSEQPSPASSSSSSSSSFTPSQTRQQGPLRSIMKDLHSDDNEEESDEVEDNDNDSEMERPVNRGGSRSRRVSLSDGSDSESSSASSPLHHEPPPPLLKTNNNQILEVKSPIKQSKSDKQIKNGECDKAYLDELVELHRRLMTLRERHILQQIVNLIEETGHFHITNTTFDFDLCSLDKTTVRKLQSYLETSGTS
* = called active by the depositor; & = joins results of further samples. Only part of the results is shown, so the mix of outcomes need not match the whole.

SMILES	AF4-AF9 inh
C[C@H](CO)N1C[C@H](C)[C@H](CN(C)C(=O)Nc2cccc3ccccc23)Oc2ccc(NC(=O)Cn3cnnn3)cc2C1=O	-0.2
C[C@@H]1CN([C@@H](C)CO)C(=O)c2cc(NC(=O)Nc3ccc4c(c3)OCO4)ccc2O[C@@H]1CN(C)Cc1ccc(Oc2ccccc2)cc1	7.9
CC(C)CC(N)c1csc(Nc2ccc(C(=O)NCCO)cc2)n1 (centres undefined)	-0.1
CO[C@H]1CN(C)C(=O)c2cc(NC(=O)C3CC3)ccc2OC[C@H](C)N(C(=O)C2CCCCC2)C[C@@H]1C	0.0
CCNC(=O)C[C@@H]1CC[C@@H]2[C@H](COc3ccc(NC(=O)Nc4cccc(Cl)c4)cc3C(=O)N2C)O1	0.8
O=C(C[C@H]1CC[C@H]2[C@@H](COC[C@@H](O)CN2C(=O)c2ccccc2F)O1)N1CCN(c2ccccc2)CC1	2.0
COc1ccc2c3c([nH]c2c1)[C@H](CO)N(C(C)=O)CC31CCN(C(=O)CN2CCOCC2)CC1	-2.0
O=S1(=O)CC(N2CCN(CCO)CC2)CN1Cc1cn(Cc2ccc(Cl)cc2)nn1 (centres undefined)	-0.4
O=C(NC1CCCC1)[C@@H]1[C@@H](CO)[C@@H]2Cn3c(ccc(-c4ccccc4)c3=O)[C@H]1N2	-1.0
COc1ccc(S(=O)(=O)N(C)C[C@H]2OCCCC[C@@H](C)Oc3ccc(NS(=O)(=O)c4ccccc4)cc3C(=O)N([C@H](C)CO)C[C@@H]2C)cc1	1.9
COc1ccc2[nH]cc(CCNC(=O)CC[C@H]3O[C@@H](n4cc(C)c(=O)[nH]c4=O)C[C@@H]3O)c2c1	0.6
C[C@@H](NC(=O)[C@H]1[C@H](CO)[C@H]2Cn3c(cccc3=O)[C@@H]1N2Cc1cccnc1)c1ccccc1	-0.7
C[C@@H]1CN([C@@H](C)CO)C(=O)c2cc(NC(=O)CCC(F)(F)F)ccc2O[C@@H](C)CCCCO[C@@H]1CN(C)C(=O)Nc1ccc(F)cc1	-3.1
CC(C)NC(=O)Nc1ccc2c(c1)C(=O)N([C@@H](C)CO)C[C@H](C)[C@@H](CN(C)C(=O)Nc1ccccc1)OCCCC[C@@H](C)O2	1.6
Cc1c(Br)cccc1NC(=O)C1(C)CCN1Cc1ccccc1OC(F)F (centres undefined)	-0.4
COCC(=O)N1[C@H](C#N)[C@H](c2ccc(C3=CCCC3)cc2)[C@@H]1CO	0.0
Cc1cnc(C(=O)N(c2ccc(N3CCOCC3)cc2)C2C(=O)Nc3ccccc3N=C2c2ccc(F)cc2)cn1 (centres undefined)	3.2
CO[C@@H]1CN(C)C(=O)c2cc(NC(=O)Nc3cc(F)ccc3F)ccc2OC[C@H](C)NC[C@H]1C	2.0
C[C@H](CO)N1C[C@H](C)[C@H](CN(C)C)Oc2ncc(C#CC3CC3)cc2C1=O	-1.5
Cn1c(=O)c2cc(NC(=O)CCc3ccccc3)ccc2n1Cc1cccc(C(F)(F)F)c1	-6.7
C[C@@H]1CN([C@H](C)CO)C(=O)c2cccc(NS(=O)(=O)c3ccc(F)cc3)c2O[C@H]1CN(C)S(=O)(=O)c1ccccc1	-2.2
COc1ccc(C2=NN(C(=O)c3ccco3)C(c3cccs3)C2)cc1OC (centres undefined)	5.8
COc1cccc(NC(=O)N[C@H]2CC[C@H](CC(=O)NCc3ccccn3)O[C@H]2CO)c1	-1.1
O=C(C[C@H]1CC[C@@H](NC(=O)C2CCOCC2)[C@@H](CO)O1)NCC1CC1	-2.4
C[C@@H]1CN([C@@H](C)CO)C(=O)Cc2cc(NC(=O)C3CC3)ccc2O[C@H]1CN(C)Cc1ccc(Cl)c(Cl)c1	6.8
COCCNC(=O)C[C@@H]1CC[C@H]2[C@H](COc3ccc(NC(=O)C4CCCC4)cc3C(=O)N2C)O1	-2.2
CC(C)NC(=O)Nc1ccc2c(c1)C(=O)N(C)[C@H]1CC[C@H](CC(=O)NCC3CCCCC3)O[C@@H]1CO2	1.1
Cc1cc(C(=O)Nc2cccc3c2O[C@@H](CN(C)S(=O)(=O)c2ccc(F)cc2)[C@H](C)CN([C@H](C)CO)C3=O)n(C)n1	-2.1
O=C(CCN1CCCCC1)N[C@H]1CC[C@@H](CCNS(=O)(=O)c2ccccc2)O[C@H]1CO	0.6
COc1ccc(CCN2CCC(CN3C(=S)NC[C@@H]3Cc3ccccc3)CC2)cc1OC	19.7
C[C@H]1CN([C@@H](C)CO)C(=O)c2cc(C#Cc3ccccc3F)cnc2O[C@H]1CN(C)C	11.8
O=C(C[C@H]1C=C[C@@H](NC(=O)Nc2ccccc2)[C@H](CO)O1)NCc1ccccn1	-2.9
CCCS(=O)(=O)NC(=O)C1(C)CCN1C(=O)Cc1ccc(Cl)cc1Cl (centres undefined)	-5.1
Cc1noc(C)c1NC(=O)N(C)C[C@H]1Oc2ccc(NC(=O)Nc3ccccc3)cc2CC(=O)N([C@@H](C)CO)C[C@@H]1C	-1.1
COc1ccc(Nc2nc(NC(C)C)nc3ccsc23)cc1OC	11.4
C[C@@H]1CN([C@@H](C)CO)C(=O)Cc2cc(NS(C)(=O)=O)ccc2O[C@@H]1CN(C)S(C)(=O)=O	-2.8
CC(C)NC(=O)N(C)C[C@@H]1Oc2ccc(NC(=O)CCCCCC(=O)Nc3ccccc3N)cc2C(=O)N([C@H](C)CO)C[C@@H]1C	0.2
C[C@@H]1CN([C@H](C)CO)C(=O)Cc2cc(N(C)C)ccc2O[C@H]1CN(C)C(=O)Nc1ccc(C(F)(F)F)cc1	-1.0
OC(c1ccc(F)c(F)c1)c1nc(-c2cc(F)cc(F)c2)cs1 (centres undefined)	-4.7
Cc1cc2nc(-c3ccccc3)c(Cc3ccsc3)n2c(C)c1Br	0.3
C[C@H](NC(=O)C[C@H]1C[C@@H]2c3cc(NC(=O)c4cccnc4)ccc3O[C@@H]2[C@@H](CO)O1)c1ccccc1	0.8
CO[C@@H](CN(C)S(=O)(=O)c1ccc(Cl)cc1)[C@@H](C)CN(Cc1ccccc1Cl)[C@H](C)CO	-21.5
O=C(C[C@@H]1CC[C@H](NC(=O)c2ccccc2)[C@@H](CO)O1)NCCc1ccncc1	-1.6
C/C=C/c1ccc2c(c1)O[C@@H](CN(C)C(=O)NC(C)C)[C@H](C)CN([C@H](C)CO)S2(=O)=O	1.0
O=C(N[C@@H]1CC[C@@H](CCn2cc(C3CC3)nn2)O[C@@H]1CO)c1cccnc1	0.9
C[C@H]1CN([C@@H](C)CO)C(=O)c2cc(-c3cccc(C(=O)N(C)C)c3)cnc2O[C@@H]1CN(C)C(=O)Cc1ccccn1	0.1
O=C(Nc1ccc(F)c(Cl)c1)C1Cc2c(-c3ccco3)ccnc2O1 (centres undefined)	-0.3
CC(C)NC(=O)N(C)C[C@H]1Oc2cc(C#Cc3ccccn3)ccc2S(=O)(=O)N([C@H](C)CO)C[C@@H]1C	-2.4
C[C@H](CO)N1C[C@H](C)[C@H](CN(C)C(=O)Nc2ccc(F)cc2)Oc2ccc(NC(=O)CCC(F)(F)F)cc2CC1=O	-2.5
C[C@H]1CN([C@@H](C)CO)C(=O)c2cc(NC(=O)Nc3ccc(C(F)(F)F)cc3)ccc2O[C@@H]1CN(C)Cc1ccc(Cl)c(Cl)c1	-0.1

Later entries:
SMILES	AF4-AF9 inh
C[C@H](CO)N1C[C@H](C)[C@@H](CN(C)C(=O)Nc2ccc(F)cc2)Oc2ccc(NC(=O)c3ccncc3)cc2C1=O	-1.8
CCC(=O)N(C)C[C@H]1[C@@H](c2ccc(-c3ccccc3F)cc2)[C@@H](CO)N1C(C)=O	0.0
Cc1noc(NS(=O)(=O)c2ccc(NC(=O)c3cccc(S(=O)(=O)N(C)c4ccccc4)c3)cc2)c1C	2.1
O=C(C[C@@H]1CC[C@@H]2[C@H](COC[C@@H](O)CN2Cc2cccc(C(F)(F)F)c2)O1)NCc1ccccc1	-1.3
C[C@H](CO)N1C[C@H](C)[C@@H](CN(C)Cc2ccc(F)cc2)OCc2ccccc2-c2ccccc2C1=O	1.7
C[C@H]1CN([C@@H](C)CO)C(=O)c2cc(NC(=O)C3CCCCC3)ccc2O[C@H]1CN(C)Cc1ccc2c(c1)OCO2	-0.7
CCCC(=O)Nc1ccc2c(c1)OC[C@H](C)N(C(=O)c1cccnc1)C[C@@H](C)[C@@H](OC)CN(C)C2=O	-1.0
COc1cccc(-c2ccc(C3[C@H]4CNC[C@@H]3N4S(=O)(=O)c3cccc(Cl)c3)cc2)c1 (some centres undefined)	-6.1&-6.1
CCCNC(=O)N1CC2(CCN(S(=O)(=O)CC)CC2)c2c([nH]c3cc(OC)ccc23)[C@@H]1CO	1.8
CO[C@H]1CN(C)C(=O)c2cc(NC(C)=O)ccc2OC[C@@H](C)N(C(=O)C2CCCCC2)C[C@@H]1C	2.0

Already shown: two of the compounds above.
SMILES	AF4-AF9 inh
C[C@H](CO)N1C[C@H](C)[C@@H](CN(C)C(=O)Nc2ccc(F)cc2)Oc2ccc(NC(=O)c3ccncc3)cc2C1=O	-1.8
CCC(=O)N(C)C[C@H]1[C@@H](c2ccc(-c3ccccc3F)cc2)[C@@H](CO)N1C(C)=O	0.0

Carrying on:
SMILES	AF4-AF9 inh
C/C=C/c1ccc([C@H]2[C@H](CO)N(c3nc(CC)cs3)[C@H]2CNC(C)C)cc1	8.4
CNC[C@@H]1Oc2cc(C#CCN(C)C)ccc2S(=O)(=O)N([C@@H](C)CO)C[C@H]1C	11.0
C[C@@H]1CN([C@@H](C)CO)C(=O)c2cccc(NS(=O)(=O)c3ccccc3)c2O[C@H]1CN(C)C(=O)Nc1ccccc1	-11.3
C[C@H](CO)N1C[C@H](C)[C@H](CN(C)Cc2ccc(F)cc2)Oc2ncc(/C=C/c3ccccc3)cc2C1=O	17.4
CC(C)NC(=O)Nc1ccc2c(c1)CC(=O)N([C@@H](C)CO)C[C@@H](C)[C@@H](CN(C)C(=O)Nc1ccc(C(F)(F)F)cc1)O2	-1.1
Cc1ccc(S(=O)(=O)Nc2ccc3c(c2)C(=O)N([C@H](C)CO)C[C@@H](C)[C@@H](CN(C)S(=O)(=O)c2ccc(F)cc2)OCCCC[C@H](C)O3)cc1	0.9
CO[C@@H]1CN(C)C(=O)c2ccc(NC(C)=O)cc2OC[C@@H](C)N(Cc2ccc(F)cc2)C[C@H]1C	-1.0
CCNC(=O)C[C@H]1CC[C@@H](NS(=O)(=O)c2ccc(F)cc2)[C@@H](CO)O1	-0.8
Cc1ccc(S(=O)(=O)Nc2ccc3c(c2)C(=O)N([C@H](C)CO)C[C@@H](C)[C@@H](CN(C)Cc2ccncc2)OCCCC[C@H](C)O3)cc1	2.4
Cc1ccc(S(=O)(=O)N(C)C[C@H]2Oc3ccc(NS(=O)(=O)c4ccccc4)cc3CC(=O)N([C@H](C)CO)C[C@@H]2C)cc1	-9.5
CCCc1cn(CC[C@H]2CC[C@H](NC(=O)C3CC3)[C@@H](CO)O2)nn1	1.0
C[C@H](NC(=O)C[C@H]1CC[C@@H]2[C@H](COC[C@@H](O)CN2C(=O)Nc2ccccc2)O1)c1ccccc1	-1.2
C[C@H]1CN([C@@H](C)CO)C(=O)c2cc(NC(=O)Nc3ccc(F)cc3)ccc2O[C@@H]1CN(C)Cc1ccc(Cl)c(Cl)c1	-1.5
CN(C)CC(=O)N1[C@H](CO)[C@H](c2ccc(-c3ccccc3F)cc2)[C@@H]1C#N	-4.6
COc1ccc(S(=O)(=O)N(C)C[C@@H]2Oc3ccc(NS(=O)(=O)c4c(C)noc4C)cc3C(=O)N([C@@H](C)CO)C[C@H]2C)cc1	0.0
C[C@@H]1CN([C@@H](C)CO)C(=O)c2cc(C#Cc3cccc(F)c3)cnc2O[C@@H]1CN(C)C(=O)c1ccccc1F	-0.7
CCC(=O)Nc1ccc2c(c1)C(=O)N(C)C[C@@H](OC)[C@@H](C)CN(C(=O)CC)[C@@H](C)CO2	1.0
COc1ccccc1-c1cn(CC[C@H]2CC[C@@H](NC(=O)Cc3ccccn3)[C@H](CO)O2)nn1	-0.2
O=C(C[C@H]1C[C@H]2c3cc(NC(=O)CC4CC4)ccc3O[C@H]2[C@H](CO)O1)NCc1ccncc1	-12.2
C[C@H]1CN([C@@H](C)CO)C(=O)c2cc(N(C)C)ccc2O[C@H]1CN(C)S(=O)(=O)c1ccc(Cl)cc1	-7.0

Structural class, the entries above containing two or more sulfur atoms.
SMILES	AF4-AF9 inh
COc1ccc(S(=O)(=O)N(C)C[C@H]2OCCCC[C@@H](C)Oc3ccc(NS(=O)(=O)c4ccccc4)cc3C(=O)N([C@H](C)CO)C[C@@H]2C)cc1	1.9
C[C@@H]1CN([C@H](C)CO)C(=O)c2cccc(NS(=O)(=O)c3ccc(F)cc3)c2O[C@H]1CN(C)S(=O)(=O)c1ccccc1	-2.2
C[C@@H]1CN([C@@H](C)CO)C(=O)Cc2cc(NS(C)(=O)=O)ccc2O[C@@H]1CN(C)S(C)(=O)=O	-2.8
Cc1noc(NS(=O)(=O)c2ccc(NC(=O)c3cccc(S(=O)(=O)N(C)c4ccccc4)c3)cc2)c1C	2.1
Cc1ccc(S(=O)(=O)Nc2ccc3c(c2)C(=O)N([C@H](C)CO)C[C@@H](C)[C@@H](CN(C)S(=O)(=O)c2ccc(F)cc2)OCCCC[C@H](C)O3)cc1	0.9
Cc1ccc(S(=O)(=O)N(C)C[C@H]2Oc3ccc(NS(=O)(=O)c4ccccc4)cc3CC(=O)N([C@H](C)CO)C[C@@H]2C)cc1	-9.5
COc1ccc(S(=O)(=O)N(C)C[C@@H]2Oc3ccc(NS(=O)(=O)c4c(C)noc4C)cc3C(=O)N([C@@H](C)CO)C[C@H]2C)cc1	0.0

Later entries.
SMILES	AF4-AF9 inh
C[C@H](CO)N1C[C@H](C)[C@H](CN(C)C(=O)C2CCOCC2)Oc2cc(C3=CCCCC3)ccc2S1(=O)=O	-6.8
Cc1noc(C)c1NC(=O)Nc1ccc2c(c1)C(=O)N([C@@H](C)CO)C[C@H](C)[C@H](CN(C)S(=O)(=O)c1cccs1)O2	-2.0
CC(C)NC(=O)N(C)C[C@@H]1Oc2ccc(NC(=O)Nc3ccc4c(c3)OCO4)cc2C(=O)N([C@@H](C)CO)C[C@H]1C	-2.4
Cc1cccc(NC(=O)COC(=O)C(NC(=O)c2cccc(S(=O)(=O)N3CCOCC3)c2)C(C)C)c1 (centres undefined)	0.1
